Mtb bLac sens = beta-lactam sensitization of Mtb H37Rv; M. tuberculosis H37Rv growth with meropenem, percent inhibition; hits of this screen are not shown here; inhibition, % at 25 µM; hit rate 0.27% among 330,000;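 active means about 74% or more and at least 40 points above the plate without the antibiotic, then above 30% in a dose series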;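 further: growth measured after seven days incubation then overnight dye step; 0% = bacteria only wells and 100% = bacteria with antibiotic; twin plates without the antibiotic show which effects depend on it; some results filed as inactive read as strong as hits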
Mtb growth = M. tuberculosis H37Rv growth inhibitors, H37Rv strain (AID 1626). hit rate 0.95% among 220,000. one-dose inhibition, % at 10 µM; IC50 in µM for titrated hits. M. tuberculosis H37Rv growth inhibition; higher % means a stronger effect;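 active means confirmed in a dose series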;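 further: bacteria incubated seven days before Alamar blue readout; 0% = bacteria only wells and 100% = bacteria with antibiotic wells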
RecA splice inh = inhibitors of M. tuberculosis RecA intein splicing; P9WHJ3; cell-free RecA intein splicing, fluorescence; inhibition, %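 (about 9 µM by stock and volumes)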; hit rate 0.75% among 290,000; AID 2221; in the data active means inhibition above about 30%;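 further: 0% = vehicle wells and 100% = reference inhibitor control wells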
Target sequence (P9WHJ3 whole entry, looked up, canonical isoform): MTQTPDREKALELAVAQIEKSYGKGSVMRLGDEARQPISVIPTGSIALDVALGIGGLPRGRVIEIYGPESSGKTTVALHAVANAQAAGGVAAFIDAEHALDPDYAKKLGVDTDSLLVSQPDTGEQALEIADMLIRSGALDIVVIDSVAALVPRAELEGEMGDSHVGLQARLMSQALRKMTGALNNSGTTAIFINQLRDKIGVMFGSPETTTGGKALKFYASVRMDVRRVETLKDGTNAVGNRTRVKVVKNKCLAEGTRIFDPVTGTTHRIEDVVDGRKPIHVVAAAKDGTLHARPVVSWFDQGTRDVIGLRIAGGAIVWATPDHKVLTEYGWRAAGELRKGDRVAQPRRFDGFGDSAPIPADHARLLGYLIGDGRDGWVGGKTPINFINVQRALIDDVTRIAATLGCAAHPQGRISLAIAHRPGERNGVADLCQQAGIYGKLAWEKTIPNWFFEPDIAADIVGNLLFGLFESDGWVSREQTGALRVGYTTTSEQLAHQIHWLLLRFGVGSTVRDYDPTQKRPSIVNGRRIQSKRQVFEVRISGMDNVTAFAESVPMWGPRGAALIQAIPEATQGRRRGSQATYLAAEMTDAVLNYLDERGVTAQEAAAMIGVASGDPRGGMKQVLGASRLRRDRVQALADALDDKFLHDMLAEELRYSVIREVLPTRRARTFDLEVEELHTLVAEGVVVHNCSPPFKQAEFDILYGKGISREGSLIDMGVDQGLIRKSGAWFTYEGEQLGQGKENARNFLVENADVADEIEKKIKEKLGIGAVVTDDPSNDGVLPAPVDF
YopH PTP inh = blocks Yersinia enterocolitica YopH tyrosine phosphatase; fluorescence Ex485/Em525; inhibition, %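 (about 10 µM by stock and volumes)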; hit rate 0.16% among 140,000; AID 898;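 active means inhibition of 50% or more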;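 further: controls were vehicle for no effect and minimum signal wells for full effect; inactives centre near -20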
Arbovirus inh = arbovirus infection inhibition; inhibition, % at 10 µM; arbovirus infection cell-based antiviral screen; AID 1251; hit rate 0.37% among 200,000;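 active means inhibition from about 30%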;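 further: bluetongue infection of BSR cells; cell survival read as ATP light after 72 h; 0% = infected wells without compound and 100% = uninfected wells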
Active calls of the source: *. These rows are one share of the data (hit frequency here may not be typical).

Screening CCOc1ccc(NC(=O)[C@@H](NC(=O)c2ccccc2Br)C(C)C)cc1 returned Mtb bLac sens -5, Mtb growth -4%, RecA splice inh 2.5, YopH PTP inh -6 and Arbovirus inh 5.
Screening COc1ccc(CCNC(=O)C2CCC(CNS(=O)(=O)c3ccccc3)CC2)cc1OC (centres undefined) returned Mtb bLac sens 7, Mtb growth 8%, RecA splice inh -4.4 and Arbovirus inh 11.
`CC(Oc1ccc2c(-c3ccccc3)cc(=O)oc2c1)C(=O)NCCCN1CCOCC1` (centres undefined) gave Mtb bLac sens -6 and RecA splice inh -2.5.
For COc1cccc(=O)c2c(C)n(C)c(C)c12 the results were Mtb bLac sens 0, Mtb growth -1%, RecA splice inh 2.9, YopH PTP inh 5 and Arbovirus inh -3.
Screening CC(=C/c1ccccc1)/C=N/NC(=O)c1cnccn1 returned Mtb bLac sens -11, Mtb growth -9%, RecA splice inh 1.0, YopH PTP inh -14 and Arbovirus inh -2.
For O=C(C(=O)N1CCN(c2ccccc2Cl)CC1)c1c[nH]c2ccccc12 the results were Mtb bLac sens -2 and RecA splice inh 5.4.
`O=C1N=C(N2CCCCC2)S/C1=C\c1ccc(Cl)cc1` gave Mtb bLac sens 92 and RecA splice inh 2.5.
COc1ccc(C(=O)NC(=S)Nc2ccc(CN3CCOCC3)cc2)cc1Cl was read as Mtb bLac sens -1 and RecA splice inh 0.8.
CCN(CC)S(=O)(=O)c1ccc(NC(=O)COC(=O)c2c[nH]c(=O)[nH]c2=O)cc1 was read as Mtb bLac sens -4, Mtb growth -17% and RecA splice inh 0.6.
`COc1ccccc1C1CCN(C(=O)c2ccco2)CC1` gave Mtb bLac sens 5 and RecA splice inh 2.0.
Screening O=C(Nc1nc2ccccc2[nH]1)c1ccc(Cl)cc1 returned Mtb bLac sens 96 and RecA splice inh 1.5.
CC(=O)C[C@H]1c2cc(C(F)(F)F)ccc2S(=O)(=O)N1c1ccc(N(C)C)cc1 was read as Mtb bLac sens 13, Mtb growth -3% and RecA splice inh 2.1.
`CN(C)/C=N/c1nc(Sc2ccc(C(F)(F)F)cc2[N+](=O)[O-])n[nH]1` gave Mtb bLac sens 3, Mtb growth -5% and RecA splice inh -2.1.
For COc1ccc(CN2CCC(CNS(=O)(=O)c3cccc(C(F)(F)F)c3)CC2)cc1 the results were Mtb bLac sens 11 and RecA splice inh -40.
Screening NC(=O)C1CCN(C(c2ccccc2Cl)c2nnnn2Cc2ccc3c(c2)OCO3)CC1 (centres undefined) returned Mtb bLac sens -3, Mtb growth -13%, RecA splice inh -3.8, YopH PTP inh -39 and Arbovirus inh 2.
Screening COC(=O)CSc1ccnc2cc(Cl)ccc12 returned Mtb bLac sens 100, Mtb growth 4.2µM* and RecA splice inh 1.4.
Screening O=C(CSc1nnc(-c2ccco2)n1-c1ccccc1)NCc1ccco1 returned Mtb bLac sens -5, Mtb growth -4%, RecA splice inh -1.2, YopH PTP inh -15 and Arbovirus inh 10.
`O=C(Nc1ccccc1N1CCCC1)c1ccc(Cl)cc1Cl` gave Mtb bLac sens 98, Mtb growth 72%, RecA splice inh -0.3 and Arbovirus inh -13.
`COc1ccc2c(c1)C(C1C(=O)CCCC1=O)c1ccccc1O2` (centres undefined) gave Mtb bLac sens 23, Mtb growth 4%, RecA splice inh -5.5, YopH PTP inh -20 and Arbovirus inh -1.
Screening CCOC(=O)c1c(C)c(C(=O)NCc2cccs2)c(C)n1C returned Mtb bLac sens 6, Mtb growth 2%, RecA splice inh 0.9, YopH PTP inh -42 and Arbovirus inh -5.

Brought forward from above: 4 entries, followed by the next part.
Screening O=C(CSc1nnc(-c2ccco2)n1-c1ccccc1)NCc1ccco1 returned Mtb bLac sens -5, Mtb growth -4%, RecA splice inh -1.2, YopH PTP inh -15 and Arbovirus inh 10.
`O=C(Nc1ccccc1N1CCCC1)c1ccc(Cl)cc1Cl` gave Mtb bLac sens 98, Mtb growth 72%, RecA splice inh -0.3 and Arbovirus inh -13.
`COc1ccc2c(c1)C(C1C(=O)CCCC1=O)c1ccccc1O2` (centres undefined) gave Mtb bLac sens 23, Mtb growth 4%, RecA splice inh -5.5, YopH PTP inh -20 and Arbovirus inh -1.
Screening CCOC(=O)c1c(C)c(C(=O)NCc2cccs2)c(C)n1C returned Mtb bLac sens 6, Mtb growth 2%, RecA splice inh 0.9, YopH PTP inh -42 and Arbovirus inh -5.
Screening CC(=O)Nc1ccc(-c2csc(NC(C)c3ccccc3)n2)cc1 (centres undefined) returned Mtb bLac sens 78, Mtb growth 74%, RecA splice inh 7.3 and Arbovirus inh -13.
Screening Cc1cccnc1NC(=O)Cn1nc([N+](=O)[O-])cc1C returned Mtb bLac sens -12, Mtb growth -4%, RecA splice inh 0.5 and Arbovirus inh -1.
Screening CCOc1ccc(NC(=O)CN(C)C(=O)Cc2c[nH]c3ccccc23)cc1OCC returned Mtb bLac sens 2 and RecA splice inh 2.0.
For CCN(CC(=O)O)S(=O)(=O)c1cc(Cl)ccc1Cl the results were Mtb bLac sens -5, Mtb growth -6%, RecA splice inh 0.5, YopH PTP inh -6 and Arbovirus inh 13.
For COc1ccc(C2N(S(=O)(=O)c3ccccc3)CCN2S(=O)(=O)c2ccc(C)cc2)cc1 (centres undefined) the results were Mtb bLac sens -6, Mtb growth 7%, RecA splice inh 2.0, YopH PTP inh -33 and Arbovirus inh 3.
Screening CCn1c(CNC(=O)Cc2ccc(OC)cc2)nnc1SCC(=O)c1ccccc1 returned Mtb growth 7% and Arbovirus inh -4.
CCN(Cc1ccccc1)C(=O)COC(=O)c1n[nH]c2ccccc12 was read as Mtb bLac sens -18, Mtb growth -8%, YopH PTP inh -23 and Arbovirus inh 6.
Screening CCOc1ccc(C2C(C(=O)c3ccco3)=C(O)C(=O)N2CCN2CCOCC2)cc1 (centres undefined) returned Mtb bLac sens 1 and RecA splice inh -0.9.
`Cc1ccc(CNC(=O)C2CC3Cn4c(nc5cc(C)c(C)cc54)C3N2C)o1` (centres undefined) gave Mtb bLac sens -9, Mtb growth 8% and RecA splice inh 0.3.
`COc1ccc(NC2CC(=O)NC2=O)cc1` (centres undefined) gave Mtb bLac sens 82, Mtb growth 1%, RecA splice inh -2.1, YopH PTP inh -10 and Arbovirus inh 8.
Screening O=C(CN1C(=O)COc2ccc(S(=O)(=O)N3CCCCC3)cc21)NCc1ccc(F)cc1 returned Mtb bLac sens 3 and RecA splice inh 0.1.
O=C(CSC1=NS(=O)(=O)c2cc(F)ccc2N1)Nc1ccccc1 was read as Mtb bLac sens -10 and RecA splice inh -1.6.
For Cc1ccc(N(C(C)C(=O)N2CCCC2)S(C)(=O)=O)cc1 (centres undefined) the results were Mtb bLac sens 7 and RecA splice inh -0.9.
`COc1ccc(CCCC(=O)N/N=C/c2ccccc2OC)cc1` gave Mtb bLac sens -1, Mtb growth 2%, RecA splice inh 2.7 and Arbovirus inh -1.
`O=C(COc1ncnc2c(Cl)cc(Cl)cc12)NC1CCCCCC1` gave Mtb bLac sens -8, Mtb growth -10%, RecA splice inh -0.6, YopH PTP inh -38 and Arbovirus inh -1.
For O=C(O)c1cc(Cl)ccc1-c1ccc(/C=C/c2cc(C(F)(F)F)[nH]c(=O)n2)o1 the results were Mtb bLac sens -6, Mtb growth -2%, RecA splice inh -12 and Arbovirus inh 16.
For COc1cc(/C=N/Nc2ccnc(=O)[nH]2)ccc1O the results were Mtb bLac sens 3 and RecA splice inh -4.8.
For CN(C)S(=O)(=O)c1cc(NC(=O)CN2CCN(c3ccccc3F)CC2)ccc1Cl the results were Mtb bLac sens -8, Mtb growth -11%, RecA splice inh -0.3 and Arbovirus inh 6.
CCCCn1c(N)c(N(CC(C)C)C(=O)C2CC(=O)N(c3ccccc3C(C)CC)C2)c(=O)[nH]c1=O (centres undefined) was read as Mtb bLac sens -3 and RecA splice inh -3.3.
Cc1cccc(NC(=O)Cn2cc(C=O)c3ccccc32)c1 was read as Mtb bLac sens 4 and RecA splice inh -1.6.

In the list so far, 2 have a nitro group on carbon:
`CN(C)/C=N/c1nc(Sc2ccc(C(F)(F)F)cc2[N+](=O)[O-])n[nH]1` gave Mtb bLac sens 3, Mtb growth -5% and RecA splice inh -2.1.
Screening Cc1cccnc1NC(=O)Cn1nc([N+](=O)[O-])cc1C returned Mtb bLac sens -12, Mtb growth -4%, RecA splice inh 0.5 and Arbovirus inh -1.

The results go on.
CC(NCCC1(Cc2ccccc2Cl)CCOC(C)(C)C1)c1cccs1 (centres undefined) was read as Mtb bLac sens 7, Mtb growth 8% and RecA splice inh 1.7.
`Cc1noc(NS(=O)(=O)c2ccc(NC(=O)CS(=O)(=O)c3ccccc3)cc2)c1C` gave Mtb bLac sens 52, Mtb growth -6%, RecA splice inh -1.7, YopH PTP inh -22 and Arbovirus inh 6.
For Cc1ccc(CC(=O)Nc2ccc(C(=O)N3CCCCC3)cc2)cc1 the results were Mtb bLac sens 7 and RecA splice inh -4.1.
COc1ccc(N2CC(C)Cn3c2nc2c3c(=O)n(Cc3ccccc3F)c(=O)n2C)c(OC)c1 (centres undefined) was read as Mtb bLac sens 11, Mtb growth -5%, RecA splice inh 5.8, YopH PTP inh -15 and Arbovirus inh 6.
`CNC(=O)CN(C)S(=O)(=O)c1ccc(F)cc1` gave Mtb bLac sens -11, Mtb growth 0%, RecA splice inh -3.0, YopH PTP inh -17 and Arbovirus inh 3.
Cc1cccc(-n2c(/C=C/c3ccccn3)nc3ccccc3c2=O)c1 was read as Mtb bLac sens 0 and RecA splice inh -7.6.
`O=C(Nn1c(Cc2cccs2)nc2ccccc2c1=O)c1cccs1` gave Mtb bLac sens 4, Mtb growth -4%, RecA splice inh 1.4, YopH PTP inh -44 and Arbovirus inh 9.
For CCCn1c(Nc2ccc(Cl)cc2)nc2ccccc21 the results were Mtb bLac sens 4, Mtb growth 3%, RecA splice inh -0.5, YopH PTP inh -14 and Arbovirus inh -1.
COc1ccc(S(=O)(=O)N2N=C(c3cccc(NS(C)(=O)=O)c3)CC2c2ccco2)cc1 (centres undefined) was read as Mtb bLac sens 3 and RecA splice inh 3.2.
Screening CN1CCCN(C(=O)COc2ccc(Br)cc2)CC1 returned Mtb bLac sens -9 and RecA splice inh -0.9.
Screening O=C(Nc1cccnc1)C1CCC(CNS(=O)(=O)c2cccc3nsnc23)CC1 (centres undefined) returned Mtb bLac sens -4, Mtb growth 0% and RecA splice inh 1.4.
Screening COc1ccccc1Cn1c(=O)c2ccccc2n2c(SCC(=O)N3CCCCC3)nnc12 returned Mtb bLac sens -1, Mtb growth 5%, RecA splice inh 0.1, YopH PTP inh -7 and Arbovirus inh -21.
`COC(=O)c1ccc(NC(=O)c2ccccc2N(C)S(C)(=O)=O)cc1` gave Mtb bLac sens -7, Mtb growth -11%, RecA splice inh 4.2, YopH PTP inh -17 and Arbovirus inh 0.
For CCOC(=O)C1CCN(C(=O)c2c(-c3c(Cl)cccc3Cl)noc2C)CC1 the results were Mtb bLac sens -7, Mtb growth -3%, RecA splice inh 0.3, YopH PTP inh -29 and Arbovirus inh -16.
`CCCCN(CC)CCNC(=O)CN(C)S(=O)(=O)c1ccc2c(c1)c(=O)n(C)c(=O)n2C` gave Mtb bLac sens -13, Mtb growth -15%, RecA splice inh 0.0, YopH PTP inh -44 and Arbovirus inh 10.
`Cn1c(SCC(=O)N/N=C/c2cc([N+](=O)[O-])ccc2O)nnc1-c1ccccc1` gave Mtb bLac sens -4, Mtb growth 0% and RecA splice inh 1.5.
For CCOCCCNC(=O)N[C@@H](C)C(=O)OC the results were Mtb bLac sens -1, Mtb growth -9%, RecA splice inh 1.6, YopH PTP inh -42 and Arbovirus inh 1.
COc1cc(C(=O)Nc2nnc(-c3sccc3C)s2)cc(OC)c1OC was read as Mtb bLac sens 3, Mtb growth 9%, RecA splice inh -1.3, YopH PTP inh -15 and Arbovirus inh -19.
`O=C(COC(=O)c1ccccc1C(=O)N1CCN(c2ccc(F)cc2)CC1)NCc1ccccc1` gave Mtb bLac sens -7, Mtb growth 1%, RecA splice inh -3.9, YopH PTP inh -2 and Arbovirus inh 7.
`CCOP(=O)(OCC)c1nc(-c2cccc3ccccc23)oc1N1CCCCC1` gave Mtb bLac sens 6, Mtb growth 0%, RecA splice inh -57 and Arbovirus inh -33.
`C=CCn1c(SCc2ccc(C#N)cc2)nnc1-c1cccc(OC)c1` gave Mtb bLac sens 1, Mtb growth 10%, RecA splice inh 4.0, YopH PTP inh -54 and Arbovirus inh 3.
CCCCC(NC(=O)c1ccc(Cl)cc1)C(=O)O (centres undefined) was read as Mtb bLac sens -4, Mtb growth -2%, RecA splice inh -6.0, YopH PTP inh -3 and Arbovirus inh 6.
Screening CCCOc1ccc(CNC(=O)Cn2ncc3ccccc32)cc1 returned Mtb bLac sens -3, Mtb growth 9% and RecA splice inh 1.1.
O=c1cc(NCCc2ccccc2)c2ccccc2o1 was read as Mtb bLac sens 7, Mtb growth -1%, RecA splice inh -10.0 and Arbovirus inh 16.
For CCOC(=O)N1CCC(Nc2nc3ccccc3nc2NS(=O)(=O)c2ccc(Cl)cc2)CC1 the results were Mtb bLac sens 6, Mtb growth -7%, RecA splice inh -3.0, YopH PTP inh 7 and Arbovirus inh -13.
O=C(CN1CCCCC1)N/N=C/c1ccc(Cl)cc1 was read as Mtb bLac sens 2 and RecA splice inh -0.8.

Compound activity deposited in PubChem by several laboratories.
